From PubChem
ClpP mod = qHTS Assay for Activators of ClpP; ATP-dependent Clp protease proteolytic subunit (Bacillus subtilis (strain 168)), P80244; purified B. subtilis ClpP, FRET peptide cleavage, 20 min; Potency, µM (titrated, usually from 57.5 µM), inactives show top-dose activity change, negative = active; 340,000 tested, 1.9% active; AID 651965, 2013; active = well fitted falling curve with a large enough effect; inconclusive = small, poorly fitted or top-dose-only effect; inactive = no such curve, though single readings can be large or run the other way; also: the source files actives as falling curves though it sought activators and does not explain the sign; nearly all actives have a fitted effect of over 65% in size; many hits overshoot -100%
Target sequence (P80244 whole entry, looked up): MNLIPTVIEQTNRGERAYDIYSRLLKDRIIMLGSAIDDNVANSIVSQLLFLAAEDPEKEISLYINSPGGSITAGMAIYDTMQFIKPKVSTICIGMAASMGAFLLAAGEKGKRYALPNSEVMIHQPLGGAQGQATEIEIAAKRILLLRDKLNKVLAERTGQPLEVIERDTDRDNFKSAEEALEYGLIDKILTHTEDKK
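Purified B. subtilis ClpP, 10 microg/mL final in Tris/HCl pH8 with KCl, BSA, glycerol and Tween-20, cleaved an Abz/nitrotyrosine-quenched decapeptide. Fluorescence (ex 320, em 430) was read at 0 and 20 min at room temperature. Delta was normalized to 5.8 microM ADEP and DMSO/no-enzyme controls.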
* hit, by the source's call; u = inconclusive. Potency is read from the fitted curve at half-maximal effect. Only part of the results is shown; rates above refer to the full screens.

item | compound | ClpP mod
1 | Cc1cccc(C)c1NC(=O)Cn1nc(C)c2sc3ccccc3c2c1=O | 4.3%
2 | Cc1oc(-c2cccc(Cl)c2)nc1CSc1nc2ncccc2[nH]1 | -7.2%
3 | Cc1cc(=O)c2cc(C(=O)Nc3ccccc3C)ccc2[nH]1 | -11%
4 | COc1ccccc1C(=O)Nc1cc2c(cc1N1CCOCC1)n(C)c(=O)n2C | 0.6%
5 | COc1cccc(OCc2nc3ccccc3n2C)c1 | -0.7%
6 | CCOc1ccc(CCNC(=O)c2ccc(CSCc3ccccc3C)o2)cc1OCC | -4.3%
7 | Cc1ccc(CNC(=O)CC2Oc3ccccc3NC2=O)cc1 (stereo unspecified) | 0.4%
8 | COc1ccc(Cc2nc3ccc(C(=O)NCc4ccccc4C)cc3o2)cc1 | 0.1%
9 | CCc1ccccc1NS(=O)(=O)c1ccc2c(c1)CCN2C(=O)C1CC1 | 0.3%
10 | COc1cccc(Cn2c(C)c(CNCc3cccc(C)c3)c(C(=O)O)c2C)c1 | -5.3%
11 | COc1ccccc1NS(=O)(=O)c1cc2c(cc1Cl)NC(=O)CO2 | -0.3%
12 | Cc1ccc(NC(=O)N2CCC(N3CCN(Cc4ccccc4)C(=O)C3=O)CC2)cc1Cl | 0.7%
13 | CCCCNc1nc(Oc2ccc(OCCC)nn2)nc(N(C)C)n1 | 2.2%
14 | CN(C)Cc1cn(-c2ccccc2)nc1-c1ccccc1 | -6.0%
15 | Cc1cccc(N(C)S(=O)(=O)c2nnc(NC(=O)C(C)Oc3ccccc3)s2)c1 (stereo unspecified) | -5.1%
16 | CNS(=O)(=O)c1cn(CC(=O)Nc2ccc(OC)cc2OC)cc1S(=O)(=O)NC | -1.7%
17 | Cn1ncc2c(Nc3cccc(C#N)c3)ncnc21 | -0.1%
18 | Cc1ccc(NC(=O)CCC(=O)NN=Cc2ccc(C)o2)c(C)c1 | 1.0%
19 | Cc1ccc(NC(=O)CSc2c3c(nc4ccccc24)CCCC3)cc1F | -2.5%
20 | Cc1c(Cl)cccc1-n1ncc(C(=O)N2CCN(C)CC2)c1C1CCN(C(=O)OC(C)(C)C)CC1 | -0.7%
21 | COc1ccc(Nc2ccc3cc(S(=O)(=O)N4CCCC4)ccc3n2)cc1OC | -2.3%
22 | Cc1cc(C)c(Cn2c(=O)n(CCCC(=O)NCc3ccc4c(c3)OCO4)c(=O)c3sccc32)c(C)c1 | -5.3%
23 | CC(C)(C)OC(=O)N1CCC(c2c(C(=O)NCCc3ccccc3)cnn2-c2ccc(F)cc2F)CC1 | 1.1%
24 | Cc1ccc2scc(N3CCCCC3)c(=O)c2c1 | -7.7%
25 | Cc1ccc(-c2onc(C)c2C)cc1S(=O)(=O)Nc1ccccn1 | -15%

(cont.)
item | compound | ClpP mod
26 | COc1ccc(Cn2c(CCC(=O)Nc3cccc(Cl)c3)nc3cccnc32)cc1 | -2.2%
27 | Cc1ccc(NC(=O)CSc2ncccc2C(=O)Oc2ccccc2Cl)cc1Cl | -8.0%
28 | Cc1ccc(Cn2ccnc2SCC(=O)Nc2ccc3c(c2)OCCO3)cc1 | 1.9%
29 | CCc1ccc(NC(=O)CSc2nc3ccsc3c(=O)n2C(C)CC)cc1 (stereo unspecified) | -0.4%
30 | Cc1ccc(C)c(NC(=O)Cn2ncc3c(C)n(Cc4ccc(F)cc4)c(C)c3c2=O)c1 | 3.4%
31 | O=C(COCc1cc(-c2ccco2)on1)Nc1cccc(Cl)c1Cl | -2.6%
32 | Cc1cccc(NC(=O)c2sc(-n3nc(C)c(Cc4ccc5c(c4)OCO5)c3C)nc2C)c1C | -17%
33 | CC(C)Cn1cc(NC(=O)N2CCN(c3cccc(Cl)c3)CC2)c2ccccc2c1=O | -25%
34 | Cc1cc(C)cc(Oc2nc3ccccn3c(=O)c2/C=C(\C#N)c2nc3ccccc3s2)c1 | 2.4%
35 | COc1cc(-c2noc(-c3cc4cc(F)ccc4oc3=O)n2)cc(OC)c1OC | -0.8%
36 | COc1ccc(CNC(=O)CCc2c(C)c3cc4c(C)coc4c(C)c3oc2=O)cc1OC | -16%
37 | COCCCNC(=O)c1c(NC(=O)Cc2coc3c(C)c(C)ccc23)sc2c1CCCC2 | -9.6%
38 | COc1ccc(CCNC(=O)CCc2c(C)nc3c(-c4ccc(F)cc4)c(C)nn3c2C)cc1OC | 0.7%
39 | COc1ccc(CCNC(=O)Cn2c(=O)c3sccc3n(CC(=O)Nc3cccc(C(F)(F)F)c3)c2=O)cc1OC | 0.4%
40 | Oc1ccc(Cl)cc1C1C=C(c2ccc3c(c2)OCO3)NC(c2ccc(C(F)(F)F)cc2)N1 (stereo unspecified) | 0.8%
41 | CNc1c(Br)cc(/C=C2\C=C(C(O)c3cc(Br)c(NC)c(Br)c3)c3ccccc32)cc1Br (stereo unspecified) | 0.5%
42 | Oc1c(C(c2ccc(F)cc2)N2CCN(Cc3ccccc3)CC2)sc2nc(-c3ccco3)nn12 (stereo unspecified) | -0.4%
43 | O=C1CC(c2ccccc2)Cc2[nH]c(=O)c(C(=O)Nc3cccc(Cl)c3)cc21 (stereo unspecified) | -3.8%
44 | COc1ccc(OC)c(CNS(=O)(=O)c2ccc(-c3coc(C)n3)cc2)c1 | 1.0%
45 | CCCN(C(=O)c1nn(-c2ccc(C)cc2)c(=O)c2c1c1ccccc1n2C)c1ccccc1C | -1.0%
46 | O=C(Cn1nnnc1-c1ccccc1F)Nc1ccc(OC(F)(F)F)cc1 | -3.6%
47 | Cc1ccc(C2CCN(C(=O)Nc3ccc(Cl)c(Cl)c3)C2)cc1 (stereo unspecified) | -1.9%
48 | CCc1nnc(SCc2nc(-c3ccc(OC)c(OC)c3)oc2C)c2cc3sc(C)cc3n12 | -7.8%
49 | COc1ccccc1CCNC(=O)c1cc2ccccn2n1 | -26%
50 | CC1=C(C(=O)NCc2ccc(Cl)cc2)C2(CCCCC2)OC1=O | -2.5%

(next part)
item | compound | ClpP mod
51 | COc1ccc(-c2nc3ccccc3s2)cc1NC(=O)c1cc2ccccc2o1 | u
52 | O=C(CSc1nnc(-c2ccccc2F)o1)N1CCc2ccccc21 | 1.3%
53 | Cc1nc2c3ccccc3nc(NNC(=O)CCC(=O)O)n2n1 | -0.2%
54 | CC(=O)c1ccc(N2CCN(c3ncnc4c3nc3n4CCCC3)CC2)cc1 | -1.3%
55 | CC1Cn2cc(C(=O)Nc3cccc(C(F)(F)F)c3)c(=O)c3c(Cl)ccc(c32)O1 (stereo unspecified) | -1.6%
56 | NC(=O)Cn1c(=O)n(CCCCCC(=O)NCc2ccc3c(c2)OCO3)c(=O)c2sccc21 | 1.1%
57 | CCOC(=O)C1CCCN(CC(=O)N2CCCc3c2c(=O)oc2ccc(OCc4ccccc4)cc32)C1 (stereo unspecified) | 4.4%
58 | Cc1c(C(=O)NCCc2ccccc2)cccc1-n1cnc2cccnc21 | -2.6%
59 | Cc1ccc(-c2nc3sc(CCNC(=O)c4ccc(F)c(F)c4)c(C)n3n2)cc1 | -1.6%
60 | CC(=O)N1c2ccc(S(=O)(=O)NCCC(=O)Nc3ccc(Br)c(C)c3)cc2CC1C (stereo unspecified) | 0.9%
61 | CCn1nc(-c2ccccc2)c(-c2ccccc2)c(C(=O)Nc2ccc(S(N)(=O)=O)cc2)c1=O | -1.1%
62 | CCOc1ccc(C2C(=O)N(C3CCCCCC3)CC(=O)N2Cc2ccc(F)cc2)cc1OC (stereo unspecified) | -1.9%
63 | COc1ccc(Cn2c(SCc3ccc(C(=O)NCc4cccs4)cc3)nc3ccncc32)cc1 | -15%
64 | Cc1cc(C(=O)Nc2cccc(C(F)(F)F)c2)c2c(C)nn(-c3cccc(F)c3)c2n1 | 4.8%
65 | CCN(CCCNC(=O)c1cc2c(=O)[nH]c3ccc(C)cc3c2s1)Cc1ccccc1 | 14µM*
66 | CC(=O)c1ccc(NC(=O)c2cc3c(=O)oc4ccc(C)cc4c3s2)cc1 | -4.1%
67 | COc1cc(OC)cc(C(=O)Nc2nnc3n2CCS3)c1 | -1.1%
68 | CCc1ccc(NC(=O)C(=O)NCC(c2cccnc2)N2CCN(c3ccc(F)cc3)CC2)cc1 (stereo unspecified) | 2.7%
69 | CN(C)c1ccc(CNC(=O)Cn2ccc3cc(S(=O)(=O)N4CCCCCC4)ccc32)cc1 | -0.5%
70 | Cc1ccc(NC(=O)Nc2nnc(N(C)C3CCCCC3)s2)c(Cl)c1 | -0.4%
71 | COc1ccc(CNC(=O)CCS(=O)(=O)c2cc3c4c(c2)CCN4C(=O)CC3)cc1OC | -1.8%
72 | CCCSCCCNC(=O)c1ccc2nc(Cc3ccccc3)oc2c1 | -2.5%
73 | COc1ccc(OC)c(C2C(C(=O)Nc3ccc(C)cc3)=C(C)Nc3nnnn32)c1 (stereo unspecified) | 1.7%
74 | CCNC(=O)c1c(NC(=O)COc2ccc(F)cc2)sc2c1CCCC2 | -0.1%
75 | CCC1CCc2nc3sc(C(=O)Nc4cccc(C(F)(F)F)c4)c(N)c3cc2C1 (stereo unspecified) | -8.3%

Part of the list above, with each value named:
[75] CCC1CCc2nc3sc(C(=O)Nc4cccc(C(F)(F)F)c4)c(N)c3cc2C1 (stereo unspecified)
  ClpP mod: -8.3%
[59] Cc1ccc(-c2nc3sc(CCNC(=O)c4ccc(F)c(F)c4)c(C)n3n2)cc1
  ClpP mod: -1.6%
[70] Cc1ccc(NC(=O)Nc2nnc(N(C)C3CCCCC3)s2)c(Cl)c1
  ClpP mod: -0.4%
[72] CCCSCCCNC(=O)c1ccc2nc(Cc3ccccc3)oc2c1
  ClpP mod: -2.5%

(next part)
item | compound | ClpP mod
76 | COc1cc2oc(=O)c(CC(=O)NCCc3ccccc3)c(C)c2cc1Cl | 0.0%
77 | Cc1cccc(NC(=O)CN2C(=O)C(c3ccc(F)cc3)=NC23CCCCCC3)c1 | 0.3%
78 | CCOc1ccc(N(CC)S(=O)(=O)N2CCCC(C(=O)NCCc3ccc(OC)cc3)C2)cc1 (stereo unspecified) | -2.0%
79 | CCn1c(SCc2ccccc2C)nc(=O)c2c(C(=O)OC)cc(C3CC3)nc21 | -6.8%
80 | Cc1ccc(CNC(=O)c2ccc3oc(=O)n(Cc4ccccc4)c3c2)cc1 | -2.2%
81 | Cc1cc(C)cc(C(=O)NCCc2csc(-c3ccc(C(F)(F)F)cc3)n2)c1 | 0.7%
82 | Cc1cc(S(=O)(=O)n2ccnc2C(C)C)cc([N+](=O)[O-])c1C | -0.7%
83 | O=C(CCn1cnc2onc(-c3ccc(F)cc3)c2c1=O)Nc1cccc(C(F)(F)F)c1 | 0.2%
84 | O=c1oc2c(F)cc(F)cc2cc1S(=O)(=O)c1ccc(F)cc1 | 22µM*
85 | O=S(=O)(Nc1nc2n(n1)C(c1ccccc1)C=C(c1ccc(Cl)cc1)N2)c1ccccc1 (stereo unspecified) | -0.6%
86 | Fc1ccccc1N1CCN(c2ncc3c(n2)CCN(Cc2cc(Br)cs2)C3)CC1 | -3.3%
87 | CCCn1c(COc2cccc(C)c2)nc2ccccc21 | 0.9%
88 | Cc1cc(N2CCCCC2)nc2ccc(NC(=O)/C=C/c3ccc(OCCC(C)C)cc3)cc12 | -1.3%
89 | CCOc1ccccc1CNC(=O)CCc1c(C)nn(-c2ccc(N3CCCCC3)nn2)c1C | -1.8%
90 | O=c1c2ccccc2sn1-c1ccc(Cl)c(S(=O)(=O)N2CCOCC2)c1 | 0.0%
91 | CCc1ccc(-n2c(=O)c3sc4ccccc4c3n(CC(=O)NCc3ccccc3)c2=O)cc1 | u
92 | Cc1ccc(-c2nc(SCc3ccc(Br)cc3)n3[nH]c(=O)cc3n2)cc1 | 1.0%
93 | O=C(NCCc1ccc(Cl)cc1)c1ccc(CSCc2ccccc2Cl)o1 | 0.4%
94 | Brc1ccc(-c2nc(N3CCN(c4ccccc4)CC3)c3ccccc3n2)cc1 | -1.9%
95 | CC(=O)NCCNC(=O)CCCn1c(=O)[nH]c2ccsc2c1=O | -0.9%
96 | COc1ccc(CCNC(=O)C(CC(C)C)N2Cc3ccccc3C2=O)c(OC)c1OC (stereo unspecified) | -0.2%
97 | Cc1ccc2c(C)c(C(=O)N(Cc3ccc(N(C)C)cc3)Cc3ccco3)oc2c1C | -18%
98 | CCOC(=O)c1c(NC(=O)CSc2cn(CCNC(=O)c3c(F)cccc3F)c3ccccc23)sc2c1CCCC2 | -2.4%
99 | CCS(=O)(=O)n1nc(-c2ccco2)nc1NCc1ccc(C(C)C)cc1 | -0.8%
100 | O=C1CC(c2nc3ccccc3n2Cc2c(F)cccc2Cl)CN1c1cccc(C(F)(F)F)c1 (stereo unspecified) | -0.5%

(cont.)
item | compound | ClpP mod
101 | CCn1c(=O)sc2cc(NS(=O)(=O)c3ccc(C)cc3)ccc21 | -1.4%
102 | Cc1ccccc1N=C1Nc2ccccc2N[C@]12C[C@H]1CCCC(=O)N3CC[C@@H](C2)[C@@H]13 | -0.4%
103 | COC(=O)c1ccc(OC)c(CN2CCCN(Cc3ccc(C)cc3)S2(=O)=O)c1 | -2.9%
104 | Cn1nnc2c(N3CCN(c4cccc(C(F)(F)F)c4)CC3)ncnc21 | 4.6%
105 | CCCn1c(CCCNC(=O)c2ccccc2OC)nc2ccccc21 | -2.6%
106 | Cc1cccc(CCNC(=O)c2cc3c(=O)n(C)c4ccccc4c3n2C)c1 | 52%
107 | COc1ccc(NCc2nnc3n2CCCCC3)c(OC)c1 | -2.4%
108 | O=C(Cn1ccc2cc(S(=O)(=O)N3CCCCCC3)ccc21)NCc1cccc(Cl)c1 | -5.1%
109 | CCn1c(/C(C#N)=C/c2ccccc2Cl)nc2ccccc21 | -4.9%
110 | O=C(Nc1ccc(C(F)(F)F)cc1)c1cc(S(=O)(=O)N2CCCc3ccccc32)ccc1F | -4.1%
